A1 inh: caspase 3/7 activation in MEF A1-2A-BIM cells, primary screen, A1 inhibitor project, cell-based, luminescence, HTS. Caspase-Glo 3/7 luminescence, 3 h; percent of clofoctol response, vehicle zero. caspase activation, % (no concentration beside the values). hit rate 0.066% among 330,000;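 active = over half of replicate activation scores above 10%, or exactly half above 10 with the replicate mean above 10; inconclusive = replicate mean below 10 yet half the replicates above 10; inactive = over half of replicates below 10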;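 note: wells of about 30 µL received 50 nL stock; many hits fall short of the cut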
Calb FLC: C. albicans growth inhibition with fluconazole, primary screen, CaCi-2 strain, Alamar Blue fluorescence; C. albicans CaCi-2 (fluconazole-resistant clinical isolate) + fluconazole, 48 h; growth inhibition, % (test concentration not listed); hit rate 0.57% among 300,000; AID 1979, 2009;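 active = most replicates above 75%; inconclusive = exactly half above 75%; inactive = most below 75%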;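 note: all wells also contain fluconazole at 8 µg/ml as a sub-toxic cotreatment; 0% = median of DMSO wells and 100% = median of geldanamycin control wells; wells of about 8 µL received 7.5 nL stock; the first replicate is given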
Vif A3G: inhibitors of Vif binding to APOBEC3G peptide, primary screen, biochemical, TR-FRET, GST-Vif 1-94, biotin-A3G peptide, dose response retest (AID 1117319); hit rate 0.57% among 260,000; TR-FRET GST-Vif / biotin-A3G peptide binding; higher % means a stronger effect; test concentration not given here; strong numbers were not always called active; one-dose inhibition, %; IC50 in µM for titrated hits;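 active = above the screen mean plus three standard deviations and confirmed in dose response; inconclusive = results disagree or hit not tested in dose response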;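 note: Vif residues 1-94 fused to GST binding biotinylated APOBEC3G peptide 110-148; 0% = full assay without inhibitor and 100% = GST in place of GST-Vif; retest series ran down from 100 µM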
Ecoli rRNA inh: reduced GFP signal of wild-type E. coli, primary screen, bacterial rRNA inhibitor project, GFP/RFP fluorescence, OD600, single point; hit rate 1.6% among 350,000; E. coli WT GFP vs humanized-ribosome RFP mutants, 24 h; active compounds read low; DMSO median 0, no signal -100; AID 720706, 2013; GFP signal change (wild-type ribosome), % (no concentration beside the values);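 active = significant combined selectivity score with lowered wild-type GFP, culture density cut under 30%, mutant RFP and density less affected; inactive = any of these conditions unmet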; note: one replicate is shown; some compounds called inactive have numbers as strong as hits
MLL AF4-AF9 inh: inhibitors of AF4 peptide binding to AF9, primary screen, biochemical, AlphaScreen, biotin-AF4 peptide, FLAG-AF9, single point; AID 651704, 2012; Protein AF-9 (Homo sapiens), P42568; hit rate 0.47% among 350,000; inhibition, % at 10 µM;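 active = every replicate reaching a set inhibition limit, whatever the replicate mean, cut at about 25% in these data; inconclusive = mean inhibition reaches that limit but some replicates miss it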;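 note: 0% = plate neutral control median and 100% = total signal loss; the record names both 10 and 1 µM as test concentration; the first replicate is given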
Target sequence (P42568 whole entry, looked up): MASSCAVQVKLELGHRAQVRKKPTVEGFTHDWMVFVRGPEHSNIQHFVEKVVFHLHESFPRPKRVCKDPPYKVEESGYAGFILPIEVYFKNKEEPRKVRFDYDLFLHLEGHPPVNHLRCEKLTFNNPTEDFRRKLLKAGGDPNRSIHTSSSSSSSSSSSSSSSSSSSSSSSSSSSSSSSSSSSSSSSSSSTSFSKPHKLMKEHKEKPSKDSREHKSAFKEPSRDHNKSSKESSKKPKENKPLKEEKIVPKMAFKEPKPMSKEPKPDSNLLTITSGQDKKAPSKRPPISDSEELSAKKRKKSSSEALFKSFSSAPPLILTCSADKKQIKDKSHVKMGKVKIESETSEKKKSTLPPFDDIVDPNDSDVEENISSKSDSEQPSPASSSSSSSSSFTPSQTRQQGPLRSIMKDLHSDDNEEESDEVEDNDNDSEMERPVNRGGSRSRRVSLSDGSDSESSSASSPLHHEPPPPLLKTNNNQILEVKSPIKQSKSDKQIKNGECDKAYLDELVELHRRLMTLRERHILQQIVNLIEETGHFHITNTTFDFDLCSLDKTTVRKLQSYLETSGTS
Beta cell apopt: inhibitors of cytokine-induced beta cell apoptosis, primary screen, luminescence | AID 435005, 2010 | INS-1E cytokine-induced death, ATP luminescence, 48 h; percent of positive-control rescue, neutral wells zero | protection from apoptosis, % (concentration not given with the values) | hit rate 0.8% among 300,000;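 active = all replicates at 75% or more, or half of them and the mean; inconclusive = half reach 75% but not the mean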;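 note: 0% = cytokine-treated negative control wells and 100% = positive control rescue; higher means more ATP so stronger rescue from cytokine killing; wells of about 40 µL received 100 nL stock; the first replicate is given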
RanGTP-Impb inh: inhibitors of RanGTP-importin-beta interaction, primary screen, biochemical, FRET, CFP-Ran, YFP-importin-beta, homogeneous; Ran GTPase (GTP-bound) - importin-beta complex; cell-free CFP-Ran/YFP-importin-beta FRET ratio; inhibition, % (no concentration beside the values); hit rate 1.1% among 300,000; AID 2216, 2009;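 active = most replicates above 15%; inconclusive = exactly half above 15%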;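 note: 0% = DMSO wells and 100% = Ran loaded with GDP instead of GTP; wells of about 40 µL received 100 nL stock; the first replicate is given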
T cruzi inh: inhibitors of intracellular T. cruzi growth, primary screen, luminescence, NIH3T3 host cells | T. cruzi beta-gal in NIH3T3, 90 h | inhibition, % (test concentration not listed) | hit rate 1.4% among 300,000 | AID 1885, 2009;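 active = mean inhibition across valid replicates above about 55%, limit read from the data; inconclusive = mean below that limit but half or more replicates reach it; inactive = mean below it, under half of replicates reach it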;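 note: signal also drops with host cell toxicity which is not excluded here; 0% = plate median of DMSO wells and 100% = zero luminescence signal; higher percent means less beta-gal luminescence so fewer parasites; stock transfer was 50 nL into about 50 µL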
Ecoli rRNA inh OD600: recorded beside Ecoli rRNA inh, whose call it bears; OD600 change, %; measured here: OD600 growth;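 optical density of the mix in the first replicate; 0 = DMSO median and -100 = no signal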
Ecoli rRNA inh RFP: further read-out of Ecoli rRNA inh, marked with its call; RFP signal change, %; measured here: RFP humanized mutant strains;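 first replicate; 0 = DMSO median and -100 = no signal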
* = called active by the depositor; ? = inconclusive; / = no result given; & = joins results of further samples.

Values in the order – A1 inh	Calb FLC	Vif A3G	Ecoli rRNA inh	Ecoli rRNA inh OD600	Ecoli rRNA inh RFP	MLL AF4-AF9 inh	Beta cell apopt	RanGTP-Impb inh	T cruzi inh
c1ccc(CC2CCN(c3nc4ccccc4n4cnnc34)CC2)cc1
 : -0.7	?	1%	/	/	/	/	9	4.7	18
CC1CCCCN1S(=O)(=O)c1coc(C(N)=O)c1 (stereo unspecified)
 : 0.3	2	-1%	4	6	2.1	-1.2	-3	-1.4	-21
CCOc1ccc(/C=C(\C#N)C(=O)c2c(C)[nH]c3ccccc23)cc1OC
 : -0.8	-13	-4%	-11	4	-3.0	8.4	-1	?	-11
COc1cc(NC(=O)CCCC(=O)OCC(F)(F)C(F)F)nc(OC)n1
 : 1.0	-7	-3%	/	/	/	/	/	1.1	0
COc1cc(C(=O)OCc2cccc(OC)c2OC)ccc1OCC(=O)N1CCOCC1
 : -1.4	/	1%	2	-5	0.7	-6.6	-7	/	/
Cc1onc(-c2c(Cl)cccc2Cl)c1C(=O)N=S(C)(=O)c1ccccc1 (stereo unspecified)
 : ?	0	?	11	10	0.9	-0.9	1	5.1	4
COc1ccc(CNCC(O)COc2cccc3c2OC(C)(C)C3)cc1 (stereo unspecified)
 : -0.5	-29	-6%	-2	-5	-0.3	1.2	72	0.9	2
COC(=O)CCc1nc2ccccc2nc1OC
 : -0.6	28	-10%	17	6	4.2	-1.1	-1	6.2	-25
CC(=O)Nc1ccc2nc(NS(=O)(=O)c3ccc(C)cc3)sc2c1
 : -0.3	7	6%	-32	-31	-4.6	-1.4	2	2.9	0
CCn1c(Cl)c(C=O)s/c1=N\S(=O)(=O)c1ccccc1
 : 56*	3	?	5	-10	31	/	117*	-4.1	55*
O=C(NCc1ccccn1)C1CCCCC1
 : -1.4	-28	/	/	/	/	-1.5	4	3.0	-10
Cc1c(CCC(=O)O)c(=O)oc2cc3occ(-c4ccc(Br)cc4)c3cc12
 : -0.2	45	-5%	-52	-75	-13	-0.3	8	-1.5	-2
CCO[C@@H]1OC(C(=O)N2CCN(Cc3ccc4c(c3)OCO4)CC2)=C[C@H](C2CC2)[C@H]1CCCO
 : -0.3	-17	/	-11	-7	9.6	-0.7	-3	8.5	4
CCOc1ccc2nc(NCCNC(=S)NCCCN(C)C)c(C#N)cc2c1
 : 0.0	27	/	5	5	-2.4	-6.9	-4	93*	18
COC(=O)Cc1ccc2c3ccccc3n(C)c2c1
 : 0.2	-45	2%	/	/	/	/	-3	4.2	-10
COc1cc(NC(=O)Cc2nn(C)c(=O)c3ccccc23)cc(OC)c1OC
 : 0.3	-2	9%	-4	-5	-4.5	-0.4	0	2.5	-13
O=C(CSc1ccc(Cl)cc1)Nc1ccc(N2CCN(C(=O)c3ccc(Cl)cc3)CC2)cc1
 : 0.5	2	8%	/	/	/	/	-8	0.9	21
COc1ccc(S(=O)(=O)Nc2c(C(=O)O)[nH]c3ccccc23)cc1OC
 : 2.3	-7	-2%	/	/	/	/	4	3.4	-5
O=C(c1ccccc1)c1ccccc1C(=O)N1CCN(C(=O)c2ccccc2)CC1
 : 0.1	-12	-8%	7	2	-5.7	-0.9	7	0.0	-2
S=c1[nH]nc(COc2ccccc2)n1C1CCCCC1
 : 0.2	16	8%	/	/	/	/	/	-0.7	-7
Cc1nc2nc(CNC(=O)OC(C)(C)C)nn2c(C)c1CCC(=O)Nc1ccc2c(c1)OCO2
 : 0.2	3	0%	-12	-2	-0.2	7.6	3	1.9	7
COCC1CCCCN1C(=O)C1CCN(c2nc(-c3ccccc3)nc3c2CCC3)CC1 (stereo unspecified)
 : 0.3	7	-1%	-7	-24	5.2	3.3	9	2.3	7
CCOC(=O)c1ccc(N2Cc3ccccc3C2=N)cc1
 : 0.9	3	14%	/	/	/	/	3	1.6	-9
O=C(NNC(=S)NC(=O)c1cccs1)c1ccc(NC(=O)c2ccccc2)cc1
 : 0.0	21	20%	/	/	/	/	24	2.4	9
O=C(NCCc1ccccc1)c1c(O)c2cccc3c2n(c1=O)CC3
 : -1.2	90*	-12%	/	/	/	/	-3	-0.1	-7
Cc1ccc(-c2nnc(SCC(=O)Nc3ccc(N4CCOCC4)cc3)o2)cc1
 : 0.2	5	3%	/	/	/	/	11	0.6	-14
CCn1cc(C(=O)N2CCN(c3ccccn3)CC2)c(=O)c2cc(S(=O)(=O)N(C)C3CCCCC3)ccc21
 : 1.4	13	4%	-38	-66	-2.2	2.4	10	3.3	20
CCCCN1CCCCC1C(=O)Nc1c(C)cc(C)cc1C (stereo unspecified)
 : -0.2	-2	18%	/	/	/	/	-5	1.1	-4
CC(C)OC(=O)c1nnc(Cc2ccc(Cl)cc2)o1
 : -2.0	-1	1%	3	5	1.6	1.1	6	1.0	-6
COc1ccccc1NS(=O)(=O)c1ccc(NN=C2CCCC2)c([N+](=O)[O-])c1
 : 0.2	9	/	/	/	/	/	27	-2.7	17
O=C(N/N=C/C(Br)=C/c1ccccc1)c1cc(-c2ccco2)[nH]n1
 : -0.1	50	5.1µM*	11	19	-1.4	2.3	3	-0.1	-43
O=C(CN1CCNCC1)NCCSc1ccc(Cl)cc1
 : 1.3	-8	/	5	6	-0.7	1.2	-7	/	1
Cc1oc(-c2ccc(Cl)cc2)nc1CN1CCCC(C(=O)NCc2ccco2)C1 (stereo unspecified)
 : 0.1	-66	-2%	/	/	/	/	-9	1.6	41
Cc1ccc(NC(=O)CC2S/C(=N/N=C/c3c[nH]c4ccccc34)NC2=O)cc1 (stereo unspecified)
 : 0.1	0	/	/	/	/	/	-7	3.2	-6
N#Cc1ccsc1NC(=O)c1cccc(-n2cnnn2)c1
 : -1.0	18	/	1	10	2.5	9.9	5	-12	-28
COc1cc(SC#N)ccc1N=Cc1c(C)[nH]n(-c2cccc3ccccc23)c1=O
 : 0.7	8	-2%	/	/	/	/	12	-1.4	10
Cc1cccc(C)c1NC(=O)N1CCCC1C(=O)Nc1ccc(-n2cnnn2)cc1 (stereo unspecified)
 : 0.3	-18	/	1	4	-2.7	-0.2	0	-2.8	8
COc1ccc(N(C(C)=O)S(=O)(=O)c2cccs2)cc1
 : -0.1	23	/	/	/	/	/	-4	-1.2	-5
CCC1S/C(=C(\C#N)C(N)=O)N(c2ccc(F)cc2)C1=O (stereo unspecified)
 : 0.2	-18	4%	/	/	/	/	-6	4.9	3
Cc1ccc(C(=O)N2CCN(c3cnn(C)c(=O)c3Cl)CC2)cc1
 : -0.9	21	/	9	10	-1.8	-1.9	-3	-8.0	1
CCOc1ccc(NC(=O)CSc2ccc(-c3ccco3)nn2)cc1
 : -0.1	33	8%	3	3	1.1	-0.3	-2	1.4	11
Fc1ccc(N2N=C(c3cccs3)CC2c2ccco2)c(F)c1 (stereo unspecified)
 : 1.1	-18	?	/	/	/	/	10	0.8	-10
COCC(=O)Nc1cc(C)cn(Cc2ccccc2Cl)c1=O
 : 0.1	8	/	9	4	-1.3	1.6	2	1.3	3
CCOc1ccc(NC(=O)CCN2CCN(S(=O)(=O)c3ccc(OC)cc3)CC2)cc1
 : 0.9	-3	2%	/	/	/	/	1	-1.0	-12
O=C1CN=C(Nc2ccccc2Cl)N1c1ccccc1
 : 0.3	-5	-5%	6	13	1.2	/	-2	1.8	-1
CCC(=O)N(Cc1ccc(C)cc1)Cc1cc2cc3c(cc2[nH]c1=O)OCO3
 : 0.7	1	-2%	24	26	-6.6	-72	-3	0.5	9
CC(C)(C)CC(C)(C)NCC(O)COCCOc1ccc(Br)cc1 (stereo unspecified)
 : 0.1	-11	1%	/	/	/	/	36	0.8	28
O=C(CSc1ccc(Cl)cc1)NCc1ccco1
 : -0.9	0	0%	1	-1	-1.1	-0.1	-3	1.7	12
COc1cc(C2OCC3C(c4ccc(OC5OC(CO)C(O)C(O)C5O)c(OC)c4)OCC23)ccc1O (stereo unspecified)
 : 0.4	-3	?	/	/	/	-15	-2	5.0	-6
O=C(NCCc1ccccc1)C1CCN(S(=O)(=O)c2cccs2)CC1
 : -0.3	0	0%	/	/	/	/	-3	3.6	-16
COc1ccc(CCNC(=O)Cn2c(=O)n(Cc3ccco3)c(=O)c3ccc(Cl)cc32)cc1OC
 : /	2	-1%&4%	/	/	/	/	/	3.9	18
O=C(Nc1nc(-c2cccc3ccccc23)cs1)c1ccc2c(c1)S(=O)(=O)c1ccccc1C2=O
 : -1.6	11	4%	6	2	0.9	1.3	28	?	-9
CC(=C1C(=O)c2ccccc2C1=O)N1CCN(C/C=C/c2ccccc2)CC1
 : -0.3	6	4%	/	/	/	/	-3	-0.6	-2
Cn1c(N)c(C(=O)COC(=O)Cc2ccc(Br)cc2)c(=O)n(C)c1=O
 : -0.4	/	-7%	-1	1	-0.7	-2.3	1	/	/
COc1ccc(NC(=O)N(CCCN(C)C)Cc2cc3cc(OC)ccc3[nH]c2=O)cc1
 : 1.2	7	-7%	/	/	/	/	2	2.3	-5
O=S(=O)(NC1CCCCCC1)c1ccc(Br)s1
 : -0.2	-13	/	/	/	/	/	-4	3.2	4
COc1ccc(CNC(=O)C(c2ccco2)N(C(=O)c2ccccn2)c2ccccc2)cc1 (stereo unspecified)
 : 0.0	-17	-1%	2	5	4.4	-3.5	-1	1.5	0
Cc1ccc(/C=N/Nc2nnc(Cc3ccccc3)c(=O)[nH]2)o1
 : 2.0	4	/	/	/	/	-2.1	4	-5.2	6
COc1cccc(NC(=O)Cn2c(=O)n(CCC(=O)NCc3ccco3)c(=O)c3ccccc32)c1
 : 0.0	7	-5%	12	17	1.4	1.8	-5	-3.6	-14
N#CC1(NC(=O)COC(=O)c2nc(Cl)c(Cl)c(N)c2Cl)CCCCC1
 : 0.4	-5	/	-6	-1	5.1	-3.2	2	-2.8	-6
CC1Sc2ccc(C(=O)NCc3cccc(C(F)(F)F)c3)cc2NC1=O (stereo unspecified)
 : -0.3	/	/	-6	-4	-0.9	-1.3	6	/	/
COc1ccc2oc(C(=O)N(C)Cc3ccc(OC(F)F)cc3)c(C)c2c1
 : 0.4	-6	/	-28	-43	4.5	-1.3	-5	3.9	-7
CC(=O)N[C@@H](Cc1c[nH]c2ccccc12)C(=O)NCc1ccccc1
 : -1.3	1	/	1	1	-1.9	7.7	/	3.4	-2

Compound activity deposited in PubChem by several laboratories.

These rows are one share of the data; count on the stated rates, not on these rows.
